# Bioassay records: PubChem, several laboratories
# YopH PTP inh: YopH tyrosine phosphatase inhibitors, primary screen, biochemical, fluorescence Ex485/Em525 | inhibition, %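 (about 10 µM by stock and volumes)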 | AID 898, 2007 | YopH tyrosine phosphatase [Yersinia enterocolitica] | 140,000 compounds, 0.16% hits;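 active = inhibition of 50% or more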;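 note: controls were vehicle for no effect and minimum signal wells for full effect; inactives centre near -20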
# Mtb bLac sens: beta-lactam sensitization of Mtb H37Rv, H37Rv; M. tuberculosis H37Rv growth with meropenem, percent inhibition; hits of this screen are not shown here; inhibition, % at 25 µM; 330,000 compounds, 0.27% hits;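 active = about 74% or more and at least 40 points above the plate without the antibiotic, then above 30% in a dose series; inconclusive = first-round hits that could not be retested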;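 note: growth measured after seven days incubation then overnight dye step; 0% = bacteria only wells and 100% = bacteria with antibiotic; twin plates without the antibiotic show which effects depend on it; some results filed as inactive read as strong as hits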
# RecA intein inh: Mtb RecA intein splicing inhibitors, primary screen, biochemical, fluorescence, HTS. cell-free RecA intein splicing. inhibition, %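 (about 9 µM by stock and volumes)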. 290,000 compounds, 0.75% hits. AID 2221, 2009; in the data active = inhibition above about 30%; inconclusive = no clear call, values can overlap the other calls;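 note: 0% = vehicle wells and 100% = reference inhibitor control wells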
# Target sequence (P9WHJ3 whole entry, looked up): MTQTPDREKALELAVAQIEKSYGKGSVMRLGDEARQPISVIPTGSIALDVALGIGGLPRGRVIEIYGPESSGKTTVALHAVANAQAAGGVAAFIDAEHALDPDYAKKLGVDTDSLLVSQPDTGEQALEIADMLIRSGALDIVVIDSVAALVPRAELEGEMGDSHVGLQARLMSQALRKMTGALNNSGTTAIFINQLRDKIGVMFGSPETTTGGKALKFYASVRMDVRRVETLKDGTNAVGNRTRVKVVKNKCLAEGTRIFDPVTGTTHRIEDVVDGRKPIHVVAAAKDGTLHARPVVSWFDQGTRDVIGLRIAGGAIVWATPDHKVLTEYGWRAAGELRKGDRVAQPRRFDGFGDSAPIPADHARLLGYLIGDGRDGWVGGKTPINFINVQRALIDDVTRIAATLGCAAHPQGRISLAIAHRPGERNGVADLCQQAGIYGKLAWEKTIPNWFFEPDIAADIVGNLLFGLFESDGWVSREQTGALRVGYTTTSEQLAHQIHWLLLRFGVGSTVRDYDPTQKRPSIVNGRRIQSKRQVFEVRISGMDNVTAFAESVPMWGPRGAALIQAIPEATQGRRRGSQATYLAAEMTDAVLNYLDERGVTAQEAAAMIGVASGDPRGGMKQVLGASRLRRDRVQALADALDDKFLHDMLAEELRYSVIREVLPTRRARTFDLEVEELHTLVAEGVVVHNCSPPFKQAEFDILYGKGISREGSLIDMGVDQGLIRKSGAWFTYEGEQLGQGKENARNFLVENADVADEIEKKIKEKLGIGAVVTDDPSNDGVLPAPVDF
# Arbovirus anti: antivirals against arbovirus infection, primary screen, cell-based, full library, 10K replicate subset | arbovirus infection cell-based antiviral screen | inhibition, % at 10 µM | 200,000 compounds, 0.37% hits | AID 1251, 2008;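 active = inhibition from about 30%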;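 note: bluetongue infection of BSR cells; cell survival read as ATP light after 72 h; 0% = infected wells without compound and 100% = uninfected wells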
# Mtb H37Rv: M. tuberculosis H37Rv growth inhibitors, H37Rv strain (AID 1626). M. tuberculosis H37Rv growth inhibition; higher % means a stronger effect. inhibition, % at 10 µM, or IC50 in µM where a hit was titrated. 220,000 compounds, 0.95% hits;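 active = confirmed in a dose series; inconclusive = inhibition above 80% but not taken into the dose series; inactive = below 80% or under 30% at every dose of the series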;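 note: bacteria incubated seven days before Alamar blue readout; 0% = bacteria only wells and 100% = bacteria with antibiotic wells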
# Arbovirus anti repeat: also measured in Arbovirus anti; calls as there; inhibition, %; measured here: 10K subset replicate screen; many hits read low in the repeat;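 first of two repeat runs on a subset; 0% = infected and 100% = uninfected wells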
# The depositor's hits bear a star; ? = inconclusive; / = no result given; & = joins results of further samples. An excerpt, so the mix of outcomes need not match the whole.
SMILES,YopH PTP inh,Mtb bLac sens,RecA intein inh,Arbovirus anti,Mtb H37Rv,others
O=[N+]([O-])c1cccc(S(=O)(=O)c2ccc(N3CCCCC3)c([N+](=O)[O-])c2)c1,-38,-3,2.6,1,1%,
CC1(C)CC(CCNC(=O)CCl)(c2ccccc2)CCO1 (centres undefined),/,/,32*,/,3%,
CC1CN(C(=O)COC(=O)c2ccc(Cl)nc2)CC(C)O1 (centres undefined),/,1,0.9,3,-1%,
CCOc1ccc(C(=O)NCCn2cc(SCC(=O)Nc3cc(C)on3)c3ccccc32)cc1,-40,2,0.5,12,14%,
COc1ccccc1C1(O)C(=O)Nc2ccc(C)cc21 (centres undefined),/,4,-0.7,/,/,
O=C(CSc1nnnn1-c1ccccc1)Nc1ccccc1,/,-5,-2.4,/,/,
CC(OC(=O)C1CC1)C(=O)Nc1ccc([N+](=O)[O-])cc1Cl (centres undefined),/,7,3.2,2,3%,
CCOc1nc(-c2ccccc2Cl)nc2ccccc12,/,6,5.9,/,-5%,
CC1CC(C)CN(S(=O)(=O)c2ccc(NC(=O)C3CC(=O)N(Cc4ccccc4)C3)cc2)C1 (centres undefined),/,5,0.0,/,/,
CC1(C)CC(CCN)(Cc2ccccc2Cl)CCO1 (centres undefined),/,-8,2.8,/,-9%,
Cn1c(N)c(C(=O)COC(=O)c2cc(C3CC3)nc3ccccc23)c(=O)n(Cc2ccccc2)c1=O,-7,96,3.5,11,36%,
CC1CCc2sc(C(=O)N/N=C/c3ccc(O)cc3)cc2C1 (centres undefined),/,88,/,/,14%,
O=C(NCc1ccco1)C(c1ccco1)N(Cc1cccs1)C(=O)Cn1nnc2ccccc21 (centres undefined),39,-2,-2.0,2,-2%,
CC(C)CNC(=O)C1CCCN(S(=O)(=O)c2ccc(-n3cnnn3)cc2)C1 (centres undefined),-24,-3,-1.2,-6,/,
CCOc1ccc(N2C(=O)C3C(C2=O)C3(c2ccccc2)c2ccccc2)cc1 (centres undefined),-17,-6,7.9,9,10%,
Nc1c(Br)cc(Br)cc1CNC1CCC(O)CC1 (centres undefined),/,6&-4,0.2&1.7,/,/,
CCn1c(=O)c2ccccc2n(CC(=O)NCCC2=CCCCC2)c1=O,/,-9,-1.4,/,/,
COc1cc(C(=O)Nc2cccc(-c3nnc(-c4ccco4)o3)c2)ccc1OC(C)=O,/,56,6.0,-3,14%,
Cn1c(=O)c([N+](=O)[O-])c(NCCCn2ccnc2)c2ccccc21,/,-3,-3.6,/,-3%,
Cc1ccc(S(=O)(=O)NC(c2ccccc2)C(C)C(=O)n2nc(C)cc2C)cc1 (centres undefined),7,-4,4.8,-5,-2%,
COc1ccc(/C=C/C(=O)Nc2cccc(N3CCOCC3)c2)cc1OC,-8,10,0.1,5,-1%,
Cc1cccc(-n2c(-c3ccco3)nc3nc4ccccc4nc32)c1,-29,7,-3.8,3,/,
COc1ccc(NC(=O)CN2CCC(C(=O)c3ccc(F)cc3)CC2)c(OC)c1,/,8,-0.9,/,/,
CCC(C)N1C(=O)CCC1C(=O)NCc1ccc2c(c1)OCO2 (centres undefined),-44,6,0.7,2,1%,Arbovirus anti repeat=-2
NC(=O)c1nsc(C(=O)N(c2ccccc2F)C(C(=O)NCc2ccc(F)cc2)c2ccc(O)cc2)c1N (centres undefined),/,0,-3.9,/,/,
Cc1cccc(N2CCN(C(=O)c3cc(COc4ccc(F)c(F)c4)on3)CC2)n1,/,87,2.3,/,/,
CCNC(=O)c1ccc(NS(=O)(=O)c2ccc3[nH]c(=O)[nH]c3c2)cc1,/,0,0.9,/,/,
COc1ccc2c(c1)-c1nc(/N=C/c3cccc(OC)c3O)sc1CC2,-15,0,-2.0,-6,1%,
Cc1cc(=O)[nH]c(SC(C(=O)O)c2ccccc2)n1 (centres undefined),-53,4,0.4,11,13%,
COc1ccc(N/C=C/C(=O)c2sc(-c3ccccc3)nc2C)cc1,35,99,-1.1,-25,69µM*,
COc1cccc(-c2cc(C(=O)N3CC4(C)CC3CC(C)(C)C4)no2)c1 (centres undefined),-25,?,-1.6,-21,29%,
C=CCNc1nc(-c2cc3ccccc3o2)cs1,0,4,1.5,12,13%,
CCn1c(NCc2ccccc2NS(=O)(=O)c2ccc(C)cc2)nc2ccccc21,-19,1,6.1,-13,20%,
Cn1c(O)c(N=NC(=O)CNC(=O)c2cccnc2)c2ccccc21,/,-5,-0.7,/,/,
COc1cc(/C=N/NC(=O)c2ccncc2)cc2c1OCO2,/,98,-1.8,/,/,
Nc1cc(=O)[nH]c(SCc2nnnn2-c2ccc(Cl)cc2)n1,-7,1,-1.6,-5,2%,
CCOc1ccc(C(=O)Nc2ccc3c(c2)OCO3)cc1OCC,17,7,-2.6,-4,-1%,
CCOC(=O)N1CCN(CC(O)COc2c(C)cc(C)cc2C)CC1 (centres undefined),/,-5,-3.2,/,/,
O=C1Cc2ccccc2C(c2ccccc2)N1 (centres undefined),-31,1,4.7,4,-6%,
Cc1ccc(N2C(=O)NC(=O)C3(Cc4ccccc4N4CCN(c5ccccc5)CC43)C2=O)cc1 (centres undefined),-40,0,7.8,2,-4%,
COc1ccc(S(=O)(=O)N2CCOCC2)cc1NC(=O)c1cccc(Cl)c1,/,13,1.3,/,/,
CCOC(=O)c1c(C)nn(-c2ncccc2NC(=O)NC(C)C)c1C,/,-3,0.9,/,-11%,
Cn1c(SCC(=O)N2c3ccccc3CCc3ccccc32)nnc1-c1cc2ccccc2cc1O,-4,-2,7.1,1,4%,
CCOC(=O)CSc1nc(NC#N)nc(N(CC)CC)n1,-9,-1,1.6,-7,4%,
C[C@@H]1CC=C[C@H]2[C@H]1C(=O)N(Cc1ccccc1)[C@H]2c1ccc(-c2cc3ccccc3s2)cc1F,/,34,5.1,/,/,
O=C(c1ccco1)C(O)c1ccco1 (centres undefined),/,4,0.2,/,/,
CC(=O)Nc1ccc(NC(=O)C(C)OC(=O)CCC2CCCC2)cc1 (centres undefined),/,-1,-2.8,/,/,
COc1ccc(/C=N/NC(=O)c2cccnc2)cc1O,/,-10,1.8,/,/,
COc1cc2c(cc1OC)CN(c1ccc3ccccc3n1)CC2,/,8,-11,/,/,
O=C(CCCc1c[nH]c2ccccc12)NCC1COc2ccccc2O1 (centres undefined),/,-1,0.2,-1,9%,
COc1ccc(C(=O)NCCS(=O)(=O)NCCc2ccccc2)cc1,/,-12,2.8,/,/,
C=CCn1c(COc2cccc3ccc(C)nc23)nnc1SCC(N)=O,-1,-14,1.5,7,-5%,
Cn1cccc1CC(=O)N/N=C/c1ccco1,/,-3,5.2,/,4%,
Cc1cccc(NC(=O)c2cccc(Cn3cc(Br)c([N+](=O)[O-])n3)c2)c1C,-19,-2,0.8,4,11%,
CC1C=CCC2C(=O)N(c3ccccc3OC(=O)c3ccco3)C(=O)C12 (centres undefined),/,-5,14,4,3%,
CCOC(=O)C1(C)/C(=N/Nc2ccccc2Cl)C(=O)C(=O)N1c1ccccc1 (centres undefined),-20,0,1.0,12,-3%,
CCS(=O)(=O)Nc1cccc(C2=NN(S(=O)(=O)c3ccc(C)cc3)C(c3ccco3)C2)c1 (centres undefined),/,-6,4.2,-5,-5%,
COc1ccc(SC[C@H](CC(C)C)N2CCN(C)CCC2=O)cc1,/,-6,-1.2,/,-3%,
Cc1cc(C)nc(NS(=O)(=O)c2ccc(NC(=O)c3ccc4c(c3)OCCO4)cc2)n1,/,0,/,10,8%,
O=C(CCCCCn1c(=S)[nH]c2ccc(N3CCOCC3)cc2c1=O)NC1CCN(Cc2ccccc2)CC1,/,-8,-28,-1,9%,

# (continued)
SMILES,YopH PTP inh,Mtb bLac sens,RecA intein inh,Arbovirus anti,Mtb H37Rv,others
COc1ccc(C2=NN(C(=O)CSc3ncccn3)C(c3cccc(OC)c3OC)C2)cc1 (centres undefined),/,3,-1.7,0,3%,
CCOC(=O)c1sc(SCC(=O)Nc2ccc(N(C)C)cc2)nc1N,-25,4,-0.4,-3,?,
O=C(Cn1cnc2c(oc3ccccc32)c1=O)N1CCCc2ccccc21,-6,27,/,1,-10%,
COc1ccc(C(=O)Oc2cc(N)n(S(=O)(=O)c3ccccc3)n2)cc1,/,-3,/,-7,-1%,
O=C1c2ccccc2C(=O)N1OS(=O)(=O)c1ccccc1,-29,8,-1.3,-10,-3%,
COc1ccc(NC(=O)c2ccccc2-c2ccc(C(F)(F)F)cc2)cc1S(=O)(=O)N1CCOCC1,-40,14,0.3,3,2%,
O=C(CSc1nnnn1-c1ccccc1)Nc1ccc(Cl)cn1,-41,7,0.8,-6,-7%,
CCCn1nnnc1NCc1ccc(N(CC)CC)cc1,/,-6,-2.9,/,/,
CC(C)(C)c1cc(C(=O)N/N=C/c2ccc(O)cc2)n(-c2ccccc2)n1,-22,4,5.7,-6,3%,
COc1ccc2cc3cc(C(=O)Nc4ccc5c(c4)OCO5)oc3nc2c1,-4,-4,-8.1,-22,12%,
CC(Oc1ccc(C#N)cc1)C(=O)c1ccc(F)c(F)c1 (centres undefined),/,-5,1.0,6,8%,
CCOc1ccccc1C1NC(=O)NC(C)=C1C(=O)OCc1ccccc1 (centres undefined),/,-2,0.4,/,/,
O=C(CC(C(=O)N1CCc2ccccc21)n1ccnc1)NCc1ccccc1 (centres undefined),-13,-14,1.4,3,-1%,
COc1ccc(NC(=S)N2CCN(S(=O)(=O)c3ccccc3)CC2)cc1OC,/,4,-0.8,/,/,
CN(C)S(=O)(=O)c1cccc(C(=O)OCC(=O)Nc2sccc2C#N)c1,5,1,0.2,1,/,
Clc1ccc(/C=C/c2nc(Cl)c(-c3ccc(Cl)cc3)c(Cl)n2)cc1,/,9,-4.5,/,-9%,
c1nc(N2CCC3(CC2)OCCO3)c2c3c(sc2n1)CCCC3,-25,-4,5.6,1,6%,
CCN(CC)S(=O)(=O)c1cccc(C(=O)Nc2cc(C)on2)c1,/,-5,0.7,/,/,
Cc1ccc(C(=O)NCCc2ccc(F)cc2)s1,/,18,0.9,3,5%,
O=C1S/C(=C\C=C\c2ccco2)C(=O)N1c1ccccc1,-27,/,3.8,2,2%,
O=C(O)C1CCN(C(=O)c2scc3c2OCCO3)CC1,-34,6,-0.5,-4,-5%,
O=C(CCn1c(=O)c2sccc2n(CC(=O)OCc2ccccc2)c1=O)NCc1ccco1,-42,6,-1.6,7,-4%,
CC1(C)Cc2ccccc2C2=C(C(=O)N3CCCCCC3)C(=O)C(=O)N21,/,0,5.2,6,0%,
COc1ccc(/C=C2/SC(=S)N(c3ccc(S(=O)(=O)Nc4nccs4)cc3)C2=O)cc1,/,0,1.0,/,-3%,
Cc1nnc(NC(=O)c2ccc3c(c2)OCO3)s1,/,-11,3.8,-1,4%,
CCOC(=O)Cc1csc(NC(=O)COc2ccc3c(C)cc(=O)oc3c2)n1,/,-1,-14,0,-6%,
Cc1cc(C)n2nc(SCC(=O)Nc3c(C)n(C)n(-c4ccccc4)c3=O)nc2n1,-10,-16,1.2,-1,-6%,
O=C(NCc1ccccc1)c1nccnc1CO,/,-4,0.3,/,/,

# By substructure: those above containing a Cl atom.
SMILES,YopH PTP inh,Mtb bLac sens,RecA intein inh,Arbovirus anti,Mtb H37Rv,others
CC1(C)CC(CCNC(=O)CCl)(c2ccccc2)CCO1 (centres undefined),/,/,32*,/,3%,
CC1CN(C(=O)COC(=O)c2ccc(Cl)nc2)CC(C)O1 (centres undefined),/,1,0.9,3,-1%,
CC(OC(=O)C1CC1)C(=O)Nc1ccc([N+](=O)[O-])cc1Cl (centres undefined),/,7,3.2,2,3%,
CCOc1nc(-c2ccccc2Cl)nc2ccccc12,/,6,5.9,/,-5%,
CC1(C)CC(CCN)(Cc2ccccc2Cl)CCO1 (centres undefined),/,-8,2.8,/,-9%,
Nc1cc(=O)[nH]c(SCc2nnnn2-c2ccc(Cl)cc2)n1,-7,1,-1.6,-5,2%,
COc1ccc(S(=O)(=O)N2CCOCC2)cc1NC(=O)c1cccc(Cl)c1,/,13,1.3,/,/,
CCOC(=O)C1(C)/C(=N/Nc2ccccc2Cl)C(=O)C(=O)N1c1ccccc1 (centres undefined),-20,0,1.0,12,-3%,
O=C(CSc1nnnn1-c1ccccc1)Nc1ccc(Cl)cn1,-41,7,0.8,-6,-7%,
Clc1ccc(/C=C/c2nc(Cl)c(-c3ccc(Cl)cc3)c(Cl)n2)cc1,/,9,-4.5,/,-9%,
